# Cruzain Triton – cruzain (T. cruzi) inhibition with detergent | P25779 | purified cruzain, Z-FR-AMC fluorescence, 0.01% Triton | Potency, µM, for inactives: max response, negative = inhibition, usual class: inhibitors | 200,000 tested, 0.43% active | AID 1478;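 also: plate controls were neutral wells for no effect and buffer without enzyme for full effect; nearly all actives have a fitted effect of over 40% in size; top concentration of the series not given in the record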
# Target sequence (P25779 123-467 limits assumed): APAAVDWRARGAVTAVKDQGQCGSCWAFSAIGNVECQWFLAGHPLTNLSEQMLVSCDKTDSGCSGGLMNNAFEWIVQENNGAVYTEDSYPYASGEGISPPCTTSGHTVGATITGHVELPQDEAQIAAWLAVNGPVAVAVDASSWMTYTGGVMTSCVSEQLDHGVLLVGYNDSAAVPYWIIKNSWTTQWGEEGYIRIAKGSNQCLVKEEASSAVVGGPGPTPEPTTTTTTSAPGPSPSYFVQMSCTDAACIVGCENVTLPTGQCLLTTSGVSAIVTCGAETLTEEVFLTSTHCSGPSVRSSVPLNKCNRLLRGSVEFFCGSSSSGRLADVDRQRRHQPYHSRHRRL
#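 In this qHTS format, compounds are incubated with 1.5 nM cruzain for 15 min at room temperature before 2 uM Z-FR-AMC is added. Release of AMC is followed at 360/450 nm, and progress is taken as the 60 s fluorescence difference.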
# RE007 growth inh – less growth of the S. pombe RE007 Vpr strain. S. pombe RE007 Vpr strain, BacTiter-Glo ATP luminescence, 24 h; control for the full effect not named in the record. Potency, µM (titrated, usually from 92.2 µM), for inactives: top-dose activity change, negative = less growth. 360,000 tested, 0.21% active. AID 651644; active = well fitted falling curve with a large enough effect; inconclusive = small, poorly fitted or top-dose-only effect; inactive = no such curve, though single readings can be large or run the other way;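 also: % is scaled to controls: 0 for no effect and ±100 for the full control effect; nearly all actives have a fitted effect of over 50% in size; the assay follows cell death caused by Vpr and the record does not say whether a fall means rescue or toxicity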
#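 Fission yeast RE007 carrying one integrated HIV-1 vpr copy, seeded at OD 0.01 in PMG+AL medium with 23 nL pinned compound. Grown 24 h at 30 degrees; viability read by BacTiter-Glo luminescence after 5 min.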
# Lassa entry inh – inhibitors of Lassa virus binding or cell entry. Lassa virus pseudotype entry inhibition, cell reporter; control for the full effect not named in the record. AID 540256. 300,000 tested, 1.2% active. Potency, µM (titrated, usually from 37.9 µM), for the others: at the highest dose activity change, negative = inhibition, most hits filed as inhibitors; active means well fitted inhibition curve with a large enough effect; inconclusive means small, poorly fitted or top-dose-only effect, or effect the other way; inactive means flat fitted curve, though single readings scatter; tested in HEK293 cells; also: % is scaled to controls: 0 for no effect and ±100 for the full control effect; nearly all actives have a fitted effect of over 50% in size; luciferase read-out
# SARS PLP yeast – blocks SARS-CoV papain-like protease in a yeast assay; S. cerevisiae expressing SARS-CoV PLpro, growth rescue; control for the full effect not named in the record; Potency, µM (highest dose often 32.9 µM), for the others: at the highest dose activity, positive = growth rescue; 330,000 tested, 0.19% active; active means well fitted rising curve with a large enough effect; inconclusive means small, poorly fitted or top-dose-only effect; inactive means no such curve, though single readings can be large or run the other way; also: 0% is about no effect; nearly all actives have a fitted effect of over 55% in size; growth read by luminescence after 48 h
# MARV entry inh – Marburg virus entry inhibition | Marburg virus pseudotyped entry inhibition, cell reporter; control for the full effect not named in the record; about a third of the inactives were read at about 46 µM | Potency, µM (titrated, usually from 37.8 µM), inactives show at the highest dose activity change, negative = inhibition, usual class: inhibitors | 300,000 tested, 1.8% active | AID 540276; active = well fitted inhibition curve with a large enough effect; inconclusive = small, poorly fitted or top-dose-only effect, or effect the other way; inactive = flat fitted curve, though single readings scatter; tested in HEK293 cells; about a fifth of its hits are not listed in these tables; also: % is scaled to controls: 0 for no effect and ±100 for the full control effect; luciferase read-out
# 2A StopGo – lowers the luciferase signal of an FMDV 2A StopGo reporter. 410,000 tested, 1.2% active. Potency, µM (top dose mostly 57.9 µM), without a hit: at the highest dose signal change, negative = less light. AID 1159524. human cells with a luciferase reporter of 2A StopGo recoding; control for the full effect not named in the record; active = well fitted falling curve with a large enough effect; inconclusive = small, poorly fitted or top-dose-only effect; inactive = no such curve, though single readings can be large or run the other way; tested in HEK293T cells; also: % is scaled to controls: 0 for no effect and ±100 for the full control effect; nearly all actives have a fitted effect of over 45% in size; luciferase light after 4 h
# NS1 inh – influenza NS1 inhibition; Potency, µM (doses to about 46.1 µM), inactives show at the highest dose activity, positive = more growth; S. cerevisiae slowed by influenza A NS1, growth recovery by OD600; 270,000 tested, 0.4% active; active means well fitted rising curve with a large enough effect; inconclusive means small, poorly fitted or top-dose-only effect; inactive means no such curve, though single readings can be large or run the other way; also: nearly all actives have a fitted effect of over 50% in size
#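 Read-out: OD600 growth recovery of NS1-expressing budding yeast. Cells grown overnight at 30C in -URA glucose medium, washed, resuspended and diluted 1:100 in 2% galactose assay medium, pH 6.0. Same strain lacking NS1 served as positive control.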
# Cruzain noTriton – cruzain (T. cruzi) inhibition without detergent | purified cruzain, Z-FR-AMC fluorescence, no detergent | Potency, µM, inactives show max response, negative = inhibition, hits mostly inhibitors | AID 1476 | 200,000 tested, 2.3% active;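 also: plate controls were enzyme without inhibitor for no effect and buffer without enzyme for full effect; nearly all actives have a fitted effect of over 40% in size; top concentration of the series not given in the record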
#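 Purified cruzain at 1.5 nM, pre-incubated 15 min with compound at room temperature in 100 mM sodium acetate pH 5.5, 5 mM DTT, 0.00005% Triton X-100. Reaction started with 2 uM Z-FR-AMC; AMC fluorescence increase over 60 s gives rate.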
# An asterisk follows results filed as active; ? = inconclusive; / = no result given; & = joins results of further samples; [ ] = another dose, or the depositor's remark. Unless noted, calls follow the shape of the dose curve; as a rule, active = well fitted curve in the direction sought with a large enough effect; inconclusive = small, poorly fitted or top-dose-only effect, or another doubt; inactive = no such curve, though single readings can be large; an effect the other way counts as inactive or inconclusive. Potency is read from the fitted curve at half-maximal effect.
SMILES,Cruzain Triton,RE007 growth inh,Lassa entry inh,SARS PLP yeast,MARV entry inh,2A StopGo,NS1 inh,Cruzain noTriton
O=C(c1cc2ccccc2cc1OCC(O)CN1CCCCC1)N1CCCCC1 (stereo not given),3.2%,-7%,/,7%,/,-15%,0%,-6%
Cc1ccccc1-c1nc(SCC(=O)N(C)c2ccccc2)c2c(=O)n(C)c(=O)n(C)c2n1,0.8%,/,-9%[46.1 µM],/,/,-16%,/,8%
COc1cc(NC(=O)Cn2c(-c3cncs3)nc3ccccc32)cc(OC)c1OC,0.7%,14%,-6%,7%,10%,-5%,-142%,12%
CCOC(=O)C1CCCN(C(=S)Nc2ccc(F)cc2)C1 (stereo not given),/,-16%,-8%,0%,1%[14.2 µM],20%,-3%,/
O=c1[nH]c(=O)n(Cc2ccccc2)c(O)c1/C=C1\C=Nc2ccccc21,/,-14%,?,0%,-26%,2%,/,/
CCOC(=O)CC(N)c1cccc([N+](=O)[O-])c1 (stereo not given),/,2%,10%,-1%,34%[46.1 µM],13%,/,/
CCc1ccccc1NC(=O)CN1C(=O)C2CCCN2c2ccc(S(=O)(=O)N(CC)CC)cc21 (stereo not given),-2.9%,/,9%[46.1 µM],/,/,-4%,/,19%
COCC1CCN(C(=O)c2cc(COc3ccc(F)cc3F)on2)C1 (stereo not given),/,-6%,/,-8%,/,16%,-26%,/
O=C(/C=C/c1ccccc1[N+](=O)[O-])Nc1ccc(S(=O)(=O)Nc2ncccn2)cc1,/,-21%,8%,1%,21%,-15%,5%,/
Brc1c(OCCOCCn2cncn2)ccc2ccccc12,-21%,-20%,11%,-7%,1%,12%,-47%,-15%
O=C(O)c1cc(NC(=O)c2cccc(F)c2)cc(NC(=O)c2cccc(F)c2)c1,/,-2%,8%,5%,-2%,-3%,?,/
Cc1cc(C(=O)Nc2ccon2)c(C)o1,/,-7%,?,0%,0%[46.1 µM],19%,/,/
COc1ccc(NC(=O)C(Cc2cc(C)cc(C)c2)C(C)C(=O)O)cc1 (stereo not given),/,20%,12%[46.1 µM],-3%,3%[46.1 µM],-19%,2%,/
Cc1cc(C)c(C#N)c(SCC(=O)N(CC(C)C)C2CCS(=O)(=O)C2)n1 (stereo not given),/,-16%,4%,1%,?,-22%,/,/
CS(=O)(=O)N(CC(=O)N1CCOCC1)c1cccc(Cl)c1Cl,/,-16%,/,12%,/,-8%,0%,/
O=C(CN1C(=O)CN=C(c2ccccc2)c2ccccc21)Nc1cccc(C(F)(F)F)c1,-12%,/,?,/,?,-10%,/,12%
O=C(O)CCn1cc(/C=C2/NC(=S)N(c3ccccc3)C2=O)c(-c2ccccc2)n1,-15%,/,17%,11%,-2%,-21%,29%,?
COc1cc(/C=N\n2nnnc2N)ccc1OCc1ccc(F)cc1,-21%,-12%,-15%,-2%,35%,-14%,-2%,-3%
Cc1ccc2c(c1)c1c(c(=O)n(-c3ccccc3C)c(=O)n1Cc1cccc(F)c1)n2C,0.9%,/,?,/,/,-24%,/,-6%
O=C(Nc1ccccc1)Nc1nnc(Cc2ccc([N+](=O)[O-])cc2)s1,-0.4%,1%,-4%,-2%,?,-16%,?,?
COc1cccc(/C=N/NC(=O)COc2cccc3cccnc23)c1O,/,-3%,?,0%,?,-8%,/,/
Cc1cc(C)cc(OCC(=O)Nc2cccc(C(=O)O)c2)c1,0.3%,-6%,9%,2%,23%,38%[activator],-5%,3%
COc1ccc(CCNC(=O)C(=O)Nc2ccc(C)c(C)c2)cc1OC,0.5%,/,2%[46.1 µM],/,/,5%,/,-1%
Cc1ccc(NC(=S)NN2CCN(C)CC2)c(C)c1,3.4%,2%,-1%,10%,?,-25%,11%,2%

# Some of the entries so far, with tabs.
SMILES	Cruzain Triton	RE007 growth inh	Lassa entry inh	SARS PLP yeast	MARV entry inh	2A StopGo	NS1 inh	Cruzain noTriton
Brc1c(OCCOCCn2cncn2)ccc2ccccc12	-21%	-20%	11%	-7%	1%	12%	-47%	-15%
O=C(O)c1cc(NC(=O)c2cccc(F)c2)cc(NC(=O)c2cccc(F)c2)c1	/	-2%	8%	5%	-2%	-3%	?	/
Cc1cc(C(=O)Nc2ccon2)c(C)o1	/	-7%	?	0%	0%[46.1 µM]	19%	/	/
COc1ccc(NC(=O)C(Cc2cc(C)cc(C)c2)C(C)C(=O)O)cc1 (stereo not given)	/	20%	12%[46.1 µM]	-3%	3%[46.1 µM]	-19%	2%	/
Cc1cc(C)c(C#N)c(SCC(=O)N(CC(C)C)C2CCS(=O)(=O)C2)n1 (stereo not given)	/	-16%	4%	1%	?	-22%	/	/

# (further entries)
SMILES,Cruzain Triton,RE007 growth inh,Lassa entry inh,SARS PLP yeast,MARV entry inh,2A StopGo,NS1 inh,Cruzain noTriton
CCn1c(Sc2ccc([N+](=O)[O-])cn2)nnc1-c1ccco1,/,-3%,?,0%,?,?,3%,/
Cc1ccc(OCC(=O)N(Cc2ccc(N(C)C)cc2)C2CCS(=O)(=O)C2)cc1 (stereo not given),-0.7%,17%,-10%,3%,18%,-2%,-8%,1%
OC[C@H]1O[C@@H](n2cnc3c(N[C@H]4CC5CCC4C5)ncnc32)[C@H](O)[C@@H]1O (stereo not given in full),-2.1%,/,/,/,11%&11%,/,-6%,?
COCCn1c(N)c(N(Cc2ccccc2)C(=O)Cc2ccccc2F)c(=O)[nH]c1=O,/,-2%,4%[46.1 µM],2%,-16%[46.1 µM],-2%,/,/
Cc1ccc(C)c(-n2c(SCC(=O)Nc3nonc3C)nnc2-c2ccoc2C)c1,1.1%,-5%,?,1%,?,8%,-4%,4%
COc1ccccc1N(CN1CCCC1=O)C(=O)c1ccccc1F,1.2%,-2%,-4%,3%,17%,3%,3%,-4%
N=C(N)c1ccc(N=Nc2c(O)ccc3c2[nH]c2ccccc23)cc1,-0.6%,-17%,-24%[46.1 µM],/,6%,1%,-5%,-1%
Cc1onc(-c2c(F)cccc2Cl)c1C(=O)OCC(=O)N1C(C)CCCC1C (stereo not given),/,-8%,?,-5%,?,-15%,/,/
Cc1cccc(NC(=O)CCOc2ccccc2)c1C,/,-8%,-2%,-1%,-6%[46.1 µM],2%,2%,/
O=C(CN1C(=O)CCC1=O)Nc1ccc(S(=O)(=O)N2CCOCC2)cc1,3.1%,8%,3%,1%,-2%&-2%,-22%,2%,-2%
CN(CCOc1ccc(Cl)c(Cl)c1)Cc1ccccc1,/,-18%,/,-3%,/,?,-14%,/
O=C(Nc1nnc(SCC(=O)N2CCCCC2)s1)C1CCCCC1,-0.7%,5%,15%,-4%,?,40%[activator],6%,-3%
Cc1nonc1C1CCCN1Cc1nc(-c2ccccc2Cl)oc1C (stereo not given),/,-18%,/,-1%,/,-21%,-5%,/
Cc1nc2ccccc2n1-c1ccccc1,2.9%,-2%,?,11%,-17%[46.1 µM],-32%,1%,-5%
COc1ccc2nc(NC(=O)CSc3ccccc3)sc2c1,-22%,-19%,-29%,10%,-4%[46.1 µM],7%,11%,-16%
Cc1c(C(=O)NNc2cc(=O)n(C)c(=O)n2C)cccc1[N+](=O)[O-],/,13%,/,1%,/,-5%,4%,/
COc1cc(NC(=O)C2CC(=O)NC3=C2C(=O)CC(C)(C)C3)c(OC)cc1Cl (stereo not given),-1.9%,12%,-2%,4%,-2%,4%,-1%,25%
Clc1ccc2c(c1)C(c1cccs1)=NNC(c1cccnc1)=N2,-2.3%,8%,6%,5%,-25%,-18%,19%,1%
CC(C(=O)O)N1C(=O)CSc2ncccc21 (stereo not given),5.2%,-19%,4%,-8%,7%,-17%,10%,10%
CCOc1ccc(-c2nc(-c3cccnc3)no2)cc1OCC,0.0%,-15%,23%,-8%,19%,25%,-8%,?
OC(Cn1cncn1)c1ccc(Cl)cc1Cl (stereo not given),2.8%,-3%,-1%,-16%,17%,-19%,-120%,1%
Cc1ccc(-c2noc(C3CCCN(S(=O)(=O)c4ccc(S(=O)(=O)N(C)C)cc4)C3)n2)o1 (stereo not given),1.7%,-9%,-27%,2%,0%,/,10%,?
COc1ccc(/C=C2\OC(=O)c3c(OC)cccc32)cc1OC,33%[activator],8%,17%,-8%,?,49%[activator],14%,8%
COc1ccc(S(=O)(=O)N(CC(=O)Nc2cccnc2)c2ccccc2OC)cc1,7.2%,4%,-9%,4%,?,21%,15%,6%
O=C1C2C3C=CC(CC3)C2C(=O)N1/N=C/c1ccc(O)cc1 (stereo not given),-3.1%,-5%,9%,-5%,14%,/,-2%,6%
CC(=O)Nc1ccc(S(=O)(=O)N2CCN(C(=O)CCC3CCCC3)CC2)cc1,-0.9%,-10%,?,-2%,?,?,1%,15%
CCN(c1ccccc1)S(=O)(=O)c1ccc(NC(=O)c2cc(=O)c3ccccc3o2)cc1,-3.9%,/,0%[46.1 µM],/,-7%[46.1 µM],?,/,4%
CC1Cc2ccccc2N1C(=O)CCN1C(=O)C2C3C=CC(C3)C2C1=O (stereo not given),3.7%,10%,-13%,5%,9%,-5%,2%,-1%
CCCNS(=O)(=O)c1ccc(CCC(=O)NCC2CCCO2)cc1 (stereo not given),1.2%,8%,17%,9%,12%,18%,-1%,-10%
O=C(Nc1ccc(NC(=O)c2ccc([N+](=O)[O-])o2)cc1Cl)c1ccco1,/,6%,0%,5%,-12%[46.1 µM],-4%,3%,/
O=C(/C=C/c1ccccc1[N+](=O)[O-])NCc1ccc(Cl)cc1,/,2%,6%,1%,2%[46.1 µM],-5%,1%,/
CCN(CC)S(=O)(=O)c1ccc2c(c1)N(CC(=O)NCCCN1CCN(c3cc(C)ccc3C)CC1)C(=O)CO2,1.9%,/,?,/,/,0%,/,6%
CCNC(=S)NN=C1c2ccccc2-c2ccccc21,/,?,-25%,1%,5%[46.1 µM],-16%,/,/
